Compound activity as filed in PubChem BioAssay.
UCH37 inh – human UCH37 deubiquitinating enzyme inhibition. Q9Y5K5. purified proteasome/UCH37, Ub-AMC cleavage fluorescence. inhibition, % (no concentration beside the values). 0.33% of 330,000 active;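 active means mean of two replicates above 20%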;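 further: 0% = compound-free wells with enzyme and 100% = wells lacking proteasome; stock transfer was 100 nL into about 20 µL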
Target sequence (Q9Y5K5 whole entry, looked up): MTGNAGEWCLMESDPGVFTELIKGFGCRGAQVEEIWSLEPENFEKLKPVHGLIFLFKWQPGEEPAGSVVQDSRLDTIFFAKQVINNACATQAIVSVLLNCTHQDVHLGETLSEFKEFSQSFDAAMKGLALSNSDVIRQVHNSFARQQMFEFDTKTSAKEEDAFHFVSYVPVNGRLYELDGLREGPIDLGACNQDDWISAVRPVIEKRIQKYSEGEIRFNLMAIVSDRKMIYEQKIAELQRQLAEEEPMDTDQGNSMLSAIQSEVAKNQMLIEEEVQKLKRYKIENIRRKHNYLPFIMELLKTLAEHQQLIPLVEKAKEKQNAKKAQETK
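Material: human UCH37 enzyme supplied as purified proteasome complex. Measure: % inhibition of Ub-AMC cleavage fluorescence. Medium: pH 7.4 Tris-HCl (50 mM) with ovalbumin, ATP-MgCl2, DTT. Times: 30 min preincubation with enzyme, 25 min cleavage at room temperature. Detection: AMC fluorescence intensity at 355/460 nm.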
RanGTP-Impb inh – disruptors of Ran-importin-beta complex formation – biochemical, FRET, CFP-Ran, YFP-importin-beta, homogeneous, primary screen | cell-free CFP-Ran/YFP-importin-beta FRET ratio | inhibition, % (concentration not given with the values) | 1.1% of 300,000 active;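 active means most replicates above 15%; inconclusive means exactly half above 15%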;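 further: 0% = DMSO wells and 100% = Ran loaded with GDP instead of GTP; wells of about 40 µL received 100 nL stock; the first replicate is given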
Vif A3G – HIV-1 Vif–A3G interaction blockers – biochemical, TR-FRET, GST-Vif 1-94, biotin-A3G peptide, dose response retest, primary screen (AID 1117319); TR-FRET GST-Vif / biotin-A3G peptide binding; higher % means a stronger effect; test concentration not given here; strong numbers were not always called active; inhibition, %, or IC50 in µM where a hit was titrated; 0.57% of 260,000 active;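 active means above the screen mean plus three standard deviations and confirmed in dose response; inconclusive means results disagree or hit not tested in dose response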;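 further: Vif residues 1-94 fused to GST binding biotinylated APOBEC3G peptide 110-148; 0% = full assay without inhibitor and 100% = GST in place of GST-Vif; retest series ran down from 100 µM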
FGF22 binding – binders of recombinant human FGF22 by thermal shift. Q9HCT0. SYPRO orange fluorescence; percent of sucrose octasulfate shift, DMSO zero. calls only at 9.99 µM. 1.5% of 340,000 active;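 active means melting point raised past a set limit in the mean and every replicate; inconclusive means no clear call; three in four hits are not shown here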
Target sequence (Q9HCT0 whole entry, looked up): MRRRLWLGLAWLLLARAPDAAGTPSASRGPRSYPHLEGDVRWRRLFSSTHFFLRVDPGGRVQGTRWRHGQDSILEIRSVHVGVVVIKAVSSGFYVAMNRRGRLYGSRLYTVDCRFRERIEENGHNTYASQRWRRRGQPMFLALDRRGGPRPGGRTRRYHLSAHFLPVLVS
E coli growth – inhibitors of Escherichia coli growth; 0.21% of 330,000 active; OD600 absorbance (concentration not given with the values); OD600, 23 h; hits give low values;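 active means OD600 absorbance below the run mean of sample wells minus 3.6 SD, in any replicate, cut at about 0.56 in these data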;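 further: stock transfer was 300 nL into about 60 µL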
AF4-AF9 inh – MLL-AF4/AF9 protein interaction inhibition; inhibition, % at 10 µM; P42568; 0.47% of 350,000 active; AlphaScreen, biotin-AF4 peptide binding to FLAG-AF9;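 active means every replicate reaching a set inhibition limit, whatever the replicate mean, cut at about 25% in these data; inconclusive means mean inhibition reaches that limit but some replicates miss it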;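 further: 0% = plate neutral control median and 100% = total signal loss; the record names both 10 and 1 µM as test concentration; the first replicate is given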
Target sequence (P42568 whole entry, looked up): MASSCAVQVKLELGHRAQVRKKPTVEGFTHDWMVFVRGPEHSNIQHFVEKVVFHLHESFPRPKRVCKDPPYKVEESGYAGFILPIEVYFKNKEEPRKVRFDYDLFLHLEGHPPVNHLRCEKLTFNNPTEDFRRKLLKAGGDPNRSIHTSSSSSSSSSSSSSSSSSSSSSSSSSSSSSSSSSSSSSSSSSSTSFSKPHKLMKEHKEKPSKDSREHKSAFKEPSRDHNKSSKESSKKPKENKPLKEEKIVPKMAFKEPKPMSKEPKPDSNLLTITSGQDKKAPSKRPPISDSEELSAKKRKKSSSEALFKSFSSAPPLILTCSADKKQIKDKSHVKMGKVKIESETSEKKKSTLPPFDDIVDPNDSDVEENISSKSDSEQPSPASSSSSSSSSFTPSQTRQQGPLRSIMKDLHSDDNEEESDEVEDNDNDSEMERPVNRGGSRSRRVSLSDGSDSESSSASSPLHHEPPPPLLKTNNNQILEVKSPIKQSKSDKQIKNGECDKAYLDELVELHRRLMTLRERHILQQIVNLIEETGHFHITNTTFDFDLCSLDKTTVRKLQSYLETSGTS
HNF4A DNA FP – change in binding of human HNF4 alpha to DNA; P41235; HNF4a-FITC DNA binding, fluorescence polarization, 1 h; activity change, % at 10 µM; 0.3% of 360,000 active; AID 1224865; in the data active means activity change above about 30%, passing the limit was not always enough;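 further: controls were the assay level and a saturating level of protein; the project sought stronger binding though the title names inhibitors; some compounds called inactive have numbers as strong as hits; positive values seem to mean higher polarization but the record does not say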
An asterisk follows results filed as active; i = inactive; u = inconclusive; x = not tested or not shown; & = joins results of further samples. An excerpt (hit frequency here may not be typical).

SMILES | UCH37 inh | RanGTP-Impb inh | Vif A3G | FGF22 binding | E coli growth | AF4-AF9 inh | HNF4A DNA FP
COc1ccc(N=Nc2c(N)n[nH]c2N)cc1 | 16 | -2.6 | u | i | 0.67 | 1.7 | 2.4
CC(C)C(C)(C#N)NC(=O)CSc1nc2scc(-c3ccco3)c2c(=O)n1-c1ccccc1 (stereo not given) | -3.3 | -0.7 | 17% | x | 0.7 | x | -0.3
CCCOC(=O)Nc1ccc(N2CCCCC2)cc1 | 2.4 | -2.1 | u | x | 0.63 | x | 7.5
N#CCCN(Cc1cccnc1)C(=O)c1ccc(S(=O)(=O)N2CCOCC2)cc1 | 0.9 | 3.6 | 4% | x | 0.73 | x | 0.9
O=C(COc1ccc(Cl)cc1)NCCc1ccccn1 | 4.6 | 3.2 | -3% | i | 0.68 | -14 | -0.2
CCOC(=O)c1ccc(S(=O)(=O)NCC(C)(C)N2CCOCC2)cc1 | -0.5 | -1.4 | -8% | i | 0.71 | 1.0 | 1.6
O=C(OCc1ccc([N+](=O)[O-])cc1)c1cc(S(=O)(=O)N2CCCCC2)ccc1N1CCOCC1 | 5.4 | -3.0 | -6% | i | 0.71 | 6.3 | 0.1
O=C(NCCCCc1ccccc1)c1cccc(Br)c1 | 3.6 | 0.5 | x | i | 0.63 | -3.1 | -0.8
CCOC(=O)N1CCN(C(=O)CN(c2cc(C(F)(F)F)ccc2Cl)S(C)(=O)=O)CC1 | 2.6 | -1.1 | -4%&-11% | x | 0.7 | x | 3.8
CCCn1nc(C(=O)N2CCN(S(=O)(=O)c3ccc(C)c(C)c3)CC2)c2ccccc2c1=O | 3.2 | x | x | i | 0.67 | 4.0 | 0.1
COc1ccc(S(=O)(=O)Nc2ccc3c(c2)C(=O)N([C@H](C)CO)C[C@H](C)[C@@H](CN(C)S(C)(=O)=O)O3)cc1 | 4.3 | x | -1% | i | 0.73 | -11&0.6 | 2.0
CC(=O)NNC(=S)NC(=O)c1ccccc1 | 2.3 | 0.3 | x | x | 0.4* | -3.1 | 4.8
CC(C)N1C(=O)CCC1C(=O)N1CCN(c2ccc(F)cc2)CC1 (stereo not given) | 0.6 | 0.7 | -3% | i | 0.71 | -5.1 | -2.9
Nc1nnc(-c2ccc(Cl)cc2Cl)s1 | -4.5 | 3.5 | x | i | 0.68 | -1.8 | 0.3
CC(NC(=O)CCOc1ccccc1)c1ccccc1 (stereo not given) | 1.2 | 0.5 | -5% | x | 0.74 | x | 0.0
CC(C)CC1NC(=O)N(CC(=O)N(C)C2CCCCC2)C1=O (stereo not given) | 0.9 | x | x | i | 0.71 | -0.2 | -2.0
COc1ccccc1CNC(=O)COC(=O)c1cccnc1SCC(=O)NCc1ccccc1OC | -2.4 | 11 | -44% | i | 0.74 | -2.2 | 2.3
Cc1ccc(NC(=O)c2cc3cc(OC(F)(F)F)ccc3[nH]2)cc1 | -0.9 | -7.0 | -18% | i | 0.67 | -2.2 | x
O=c1[nH]c(Cc2cccs2)nc2scc(-c3ccc(Cl)cc3)c12 | 0.0 | 6.3 | x | i | 0.68 | 1.4 | -1.1
CC(C)c1cc(=O)n2c(nc3ccccc32)[nH]1 | -46 | 1.5 | 0% | i | 0.65 | -6.9 | -0.1
O=C(CCn1nc(-c2ccc(Cl)cc2)ccc1=O)NCc1ccccn1 | 4.3 | -2.7 | -8% | x | 0.69 | x | 0.1
COc1ccc([N+](=O)[O-])cc1NC(=O)CCNC(=O)Cn1ccc2ccccc2c1=O | 3.1 | -4.0 | 2% | i | 0.71 | 12 | -1.1
Cc1ccccc1COC(=O)CNC(=O)c1sc2ccccc2c1Cl | 4.8 | -3.3 | 0% | i | 0.71 | -9.2 | -0.8
Cc1nnc(NC(=O)CC23CC4CC(CC(C4)C2)C3)s1 | 4.8 | u | x | i | 0.77 | -15 | 2.4
COc1ccc2[nH]c3c(c2c1)CCN1C(=O)C(CC(=O)NCCCn2ccnc2)C[C@H](C(=O)N(C(C)C)C(C)C)[C@@]31C (stereo not given in full) | -2.8 | x | x | i | 0.71 | 1.2 | -2.0
Further results
SMILES | UCH37 inh | RanGTP-Impb inh | Vif A3G | FGF22 binding | E coli growth | AF4-AF9 inh | HNF4A DNA FP
Cc1ccc(-c2cc(C(F)F)n3ncc(C(=O)Nc4ccc(S(=O)(=O)Nc5ccccc5C)cc4)c3n2)cc1 | -12 | -0.9 | 13% | x | 0.73 | x | 0.5
COc1ccc2cc(-c3cc(C(=O)O)c4ccccc4n3)ccc2c1 | -36 | 6.5 | -8% | x | 0.73 | x | 6.0
CCOC(=O)c1ccc(NC(=O)N2CCN(C3CCCCC3)CC2)cc1 | 2.2 | -4.7 | 0% | x | 0.71 | x | -0.8
COCC(=O)N(Cc1ccco1)c1nnc(C2CCOC2)s1 (stereo not given) | 1.2 | 2.4 | 2% | x | 0.73 | x | -0.6
CCN1C(=O)C(=O)N(Cc2ccc(OC)c(F)c2)C1=O | 0.6 | u | 10% | i | 0.7 | -0.4 | 6.2
COc1ccc(N2CCN(C(=S)NCc3ccccc3)CC2)cc1 | 2.1 | 0.2 | -15% | i | 0.72 | 0.3 | -0.2
CNC[C@@H]1Oc2cc(Br)ccc2S(=O)(=O)N([C@H](C)CO)C[C@@H]1C | x | x | x | i | x | -2.7&-0.2 | -0.7
O=C(CN1c2cccc3cccc(c23)S1(=O)=O)N1CCCCC1 | -100 | x | x | i | 0.69 | 2.7 | 2.0
CCC(Oc1ccc2ccccc2c1)C(=O)O (stereo not given) | -0.9 | x | 9% | x | 0.68 | x | 0.5
O=S(=O)(c1cnc[nH]1)N1CCc2ccccc21 | 2.4 | -1.2 | 11% | x | 0.7 | x | 103
Cc1nn(-c2ccccc2)c2nc(-c3ccco3)cc(C(=O)O)c12 | -1.4 | -0.4 | 28% | x | 0.69 | x | -18
COc1cccc(NC(=S)NC(=O)/C=C/c2ccc(F)cc2)c1 | 4.3 | 1.0 | x | i | 0.72 | -15 | 1.4
COc1ccc(NC(=O)CN(C)S(=O)(=O)c2ccc(Cl)cc2)cn1 | 1.3 | x | 4% | i | 0.67 | -10 | 2.5
Cc1ccc(CN2CC(N3CCCC3)CS2(=O)=O)cc1 (stereo not given) | x | x | x | i | x | -2.6 | 0.0
CN1C[C@@H]2C(c3ccc(C(F)(F)F)cc3)C3(c4ccc(C#N)cc4)CC2(C3)[C@H]1c1ccccc1 (stereo not given in full) | 5.5 | -0.6 | 2% | i | x | 0.2 | 4.4
COc1cccc(-c2cccc(NC(=O)C3CCN(Cc4ccc(CO)o4)CC3)c2)c1 | 0.1 | 0.9 | -3% | i | 0.7 | -6.4 | 3.5
O=C(Cn1nc(C(=O)O)c2ccccc2c1=O)Nc1cc(C(F)(F)F)ccc1-n1cncn1 | -1.9 | x | -7% | i | 0.71 | 0.2 | 2.6
O=C(CCNC(=O)c1ccc([N+](=O)[O-])cc1)Nc1ccc(F)c(F)c1F | 3.7 | 1.9 | 1% | i | 0.65 | 3.5 | -0.3
Fc1cccc(NC(=S)N2CCc3ccccc32)c1 | 0.5 | x | x | i | 0.71 | 2.2 | -1.0
CCOc1ccc(NC(=O)CN2CCN(CC(=O)c3ccc(OCC)cc3)CC2)cc1 | 1.8 | 1.8 | 7% | x | 0.78 | x | 2.3
O=C(Cn1[nH]c(=O)c2ccccc2c1=O)Nc1ccc(-c2nnc3n2CCCCC3)cc1 | 0.3 | -0.2 | 6% | x | 0.7 | x | 0.9
O=S(=O)(c1cccc(NC(=S)NCc2ccco2)c1)N1CCOCC1 | -1.4 | -1.8 | x | x | 0.68 | x | -0.8
O=C(C1CCN(S(=O)(=O)c2cc(Cl)ccc2Cl)CC1)N1CCCC1 | 1.6 | 3.1 | x | i | 0.68 | 1.4 | 3.7
COc1cccc(NC(=S)Nc2ccc(Br)cc2Cl)c1 | 0.9 | 2.9 | 10% | i | 0.61 | x | 6.4
Cc1ccc(NC(=O)Nc2nnc(-c3ccccc3)o2)cc1 | -0.5 | 2.8 | 1% | i | 0.68 | -1.1 | 1.1

Rewritten with two lines to a compound: part of the list above.
The line under a structure holds: UCH37 inh, RanGTP-Impb inh, Vif A3G, FGF22 binding, E coli growth, AF4-AF9 inh, HNF4A DNA FP
Cc1ccc(-c2cc(C(F)F)n3ncc(C(=O)Nc4ccc(S(=O)(=O)Nc5ccccc5C)cc4)c3n2)cc1
  -12, -0.9, 13%, x, 0.73, x, 0.5
COc1ccc2cc(-c3cc(C(=O)O)c4ccccc4n3)ccc2c1
  -36, 6.5, -8%, x, 0.73, x, 6.0
CCOC(=O)c1ccc(NC(=O)N2CCN(C3CCCCC3)CC2)cc1
  2.2, -4.7, 0%, x, 0.71, x, -0.8

Next compounds follow:
SMILES | UCH37 inh | RanGTP-Impb inh | Vif A3G | FGF22 binding | E coli growth | AF4-AF9 inh | HNF4A DNA FP
O=c1n(-c2ccccc2)c(=O)n2n1CCC2 | 0.4 | -3.1 | -1% | x | 0.7 | x | -2.6
Cc1ccc(/C=N/NC(=O)C(C)Oc2cccc3ccccc23)o1 (stereo not given) | x | 2.2 | 5% | i | x | 5.7 | -3.6
Cn1c(C2=C(O)CN(Cc3ccccc3)C2=N)nc2ccccc21 | 4.1 | -4.9 | 32% | i | 0.68 | 5.8 | 1.2
CN(C)C(=O)CCc1ccc2c3c([nH]c2c1)[C@]1(C)[C@@H](C(=O)N2CCCCC2)C[C@H](CC(=O)NCCN2CCOCC2)C(=O)N1CC3 | 0.5 | x | 2% | i | 0.66 | 0.5 | 4.5
O=S(=O)(Nc1ccc(NS(=O)(=O)c2ccccc2)c2ccccc12)c1ccccc1 | x | x | -5% | i | x | -2.6 | 4.7
O=C(/C=C/c1ccc(Cl)cc1Cl)c1cccnc1 | 3.4 | -1.7 | u | x | 0.76 | x | -1.5
CCCn1c(CCNc2nc(-c3ccc(Cl)c([N+](=O)[O-])c3)cs2)nc2cc(Cl)c(Cl)cc21 | 0.6 | -1.9 | x | i | 0.66 | 4.5 | -2.7
Cc1ccc(C)c(CN2CCC(CNC(=O)Nc3ccc(Br)cc3F)CC2)c1 | 2.7 | -0.7 | -8% | i | 0.65 | 9.6 | 0.1
O=C(c1cccc(F)c1)N1CCCC(C(=O)N2CCN(c3ccccc3)CC2)C1 (stereo not given) | 2.3 | 0.7 | 23% | i | 0.66 | -2.1 | 2.6
COc1ccc(NC(=O)c2ccccc2NC(=O)c2cccs2)cc1 | 4.9 | 4.2 | x | i | 0.71 | 1.1 | 1.0
COC(=O)c1c(NC(=O)CCc2ccc(C)o2)sc(C)c1C | -2.8 | 1.1 | 5% | x | 0.79 | x | 1.1
CC(C)(CN1CCOCC1)NS(=O)(=O)c1ccccc1 | 3.2 | -1.5 | 3% | i | 0.62 | -0.9 | 0.4
O=C(Nc1ccc(F)c(Cl)c1)C1Cc2c(-c3cccc(F)c3)ccnc2O1 (stereo not given) | x | x | x | i | x | -1.4 | -1.1
Cc1c(C)c2c(OCC(=O)NCC(O)c3ccccc3)cc3c(c2oc1=O)CCC(C)(C)O3 (stereo not given) | -138 | -3.0 | x | i | 0.7 | 1.2 | 0.7
Oc1ccc(C=Nc2cccc3ccccc23)c(O)c1 | x | 6.0 | x | i | x | -11 | 4.4
CC1CN(c2ccc(Oc3ccccc3)cc2)c2nc3c(c(=O)n(CC(N)=O)c(=O)n3C)n2C1 (stereo not given) | 4.8 | 3.2 | x | i | 0.71 | -3.7 | -1.2

Taken from above.
RanGTP-Impb inh result of O=c1n(-c2ccccc2)c(=O)n2n1CCC2 is entered as -3.1
AF4-AF9 inh result of CCCn1c(CCNc2nc(-c3ccc(Cl)c([N+](=O)[O-])c3)cs2)nc2cc(Cl)c(Cl)cc21 is entered as 4.5
AF4-AF9 inh result of CN(C)C(=O)CCc1ccc2c3c([nH]c2c1)[C@]1(C)[C@@H](C(=O)N2CCCCC2)C[C@H](CC(=O)NCCN2CCOCC2)C(=O)N1CC3 is entered as 0.5
E coli growth result of O=C(/C=C/c1ccc(Cl)cc1Cl)c1cccnc1 is entered as 0.76
